Yeast UUG start = modulators of yeast start codon fidelity, primary screen, whole organism, S. cerevisiae, single point, plate reader. S. cerevisiae UUG-firefly luciferase reporter, luminescence/redox ratio. actives 0.13% (n = 350,000). activity score, % at 18.7 µM;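 active = replicate mean at a twofold rise or more, about +100% in these data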;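 also: firefly luciferase made from a UUG start codon reports start codon fidelity; reporter light over untreated wells divided by growth signal over untreated wells; some hits fall short of that in this replicate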
eIF4H inh = human eIF4H binding inhibitors, primary screen, translation initiation inhibitor project, biochemical, uHTS, fluorescence polarization. Eukaryotic translation initiation factor 4H (Homo sapiens), Q15056. eIF4H fluorescence polarization binding assay. actives 0.94% (n = 290,000). inhibition, % at 35 µM;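 active = 50% or more with normal probe brightness, or confirmed in later tests; inconclusive = above 50% with abnormal brightness, or retests that disagree; inactive = below 50% or failed in later tests; about a fifth of its hits are not listed in these tables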;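 also: calls also rest on retests at 20 µM and on dose response follow-up; 0% = protein and probe with vehicle and 100% = probe without protein; strong numbers were not always called active; many hits fall short of the cut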
PABP FP inh = PABP poly(A) RNA binding inhibitors, primary screen, biochemical, fluorescence polarization, uHTS | Polyadenylate-binding protein 1 (Homo sapiens), P11940 | inhibition, % at 35 µM | actives 1% (n = 290,000);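 active = 50% or more with normal probe brightness, or confirmed in later tests; inconclusive = above 50% with abnormal brightness, or retests that disagree; inactive = below 50% or failed in later tests; about a fifth of its hits are not listed in these tables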;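 also: calls also rest on retests at 20 µM and on dose response follow-up; controls were probe without protein and protein plus probe with vehicle; some compounds called inactive have numbers as strong as hits; many hits fall short of the cut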
Target sequence (P11940 whole entry, looked up): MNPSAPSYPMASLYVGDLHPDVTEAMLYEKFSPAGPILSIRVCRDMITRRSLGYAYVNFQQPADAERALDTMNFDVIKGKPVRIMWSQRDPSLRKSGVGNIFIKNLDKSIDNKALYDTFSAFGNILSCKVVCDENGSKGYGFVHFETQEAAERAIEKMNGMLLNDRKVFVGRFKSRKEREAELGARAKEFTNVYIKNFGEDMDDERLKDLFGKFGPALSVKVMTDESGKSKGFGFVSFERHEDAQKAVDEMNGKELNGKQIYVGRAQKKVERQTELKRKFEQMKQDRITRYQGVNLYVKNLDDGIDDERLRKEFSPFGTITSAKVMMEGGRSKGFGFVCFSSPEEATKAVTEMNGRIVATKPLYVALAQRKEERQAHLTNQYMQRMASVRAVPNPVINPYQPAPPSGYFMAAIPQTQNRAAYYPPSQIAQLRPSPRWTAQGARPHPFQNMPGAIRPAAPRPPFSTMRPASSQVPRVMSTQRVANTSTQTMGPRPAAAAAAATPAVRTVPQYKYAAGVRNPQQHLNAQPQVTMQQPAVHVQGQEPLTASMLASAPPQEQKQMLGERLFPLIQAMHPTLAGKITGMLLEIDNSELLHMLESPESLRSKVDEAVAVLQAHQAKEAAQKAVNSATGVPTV
MT1-MMP act inh = blockers of MT1-MMP proenzyme processing, primary screen, HT1080 RFP-PRO-GFP cells, GFP/RFP fluorescence | GFP/RFP ratio fluorescence, overnight; percent of plate control window, DMSO zero | AID 651647, 2012 | GFP/RFP ratio change, % at 20 µM | Matrix metalloproteinase-14 (Homo sapiens), P50281 | actives 0.061% (n = 360,000);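 active = GFP/RFP ratio change of at least 30% with cell ATP level not reduced by more than half and red fluorescence within 50% of control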; also: strong numbers were not always called active
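Assay system: HT1080 RFP-PRO-GFP cells | Dosing: 20 µM single dose, 1% DMSO | Incubation: Cells overnight before dosing, compound overnight, 37 °C, 5% CO2 | Evaluation: GFP/RFP fluorescence ratio | Control set: DMSO-only wells and HT1080 RFP-L50D-GFP cell wells as references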
Rce1 inhib = yeast Rce1p protease inhibitors, primary screen, biochemical, fluorescence, cell-free homogeneous | AID 2563, 2010 | yeast membranes, quenched prenylated peptide cleavage fluorescence | calls only | actives 0.27% (n = 290,000);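 active = fall in fluorescence gain of 50% or more versus controls, with final raw signal at or below 3038400; inconclusive = same 50% fall but final raw signal above 3038400; inactive = fall in fluorescence gain under 50%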;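 also: plate controls were neutral control wells for no effect and wells lacking membranes for full effect; tested at 10 µM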
Target sequence (Q03530 whole entry, looked up): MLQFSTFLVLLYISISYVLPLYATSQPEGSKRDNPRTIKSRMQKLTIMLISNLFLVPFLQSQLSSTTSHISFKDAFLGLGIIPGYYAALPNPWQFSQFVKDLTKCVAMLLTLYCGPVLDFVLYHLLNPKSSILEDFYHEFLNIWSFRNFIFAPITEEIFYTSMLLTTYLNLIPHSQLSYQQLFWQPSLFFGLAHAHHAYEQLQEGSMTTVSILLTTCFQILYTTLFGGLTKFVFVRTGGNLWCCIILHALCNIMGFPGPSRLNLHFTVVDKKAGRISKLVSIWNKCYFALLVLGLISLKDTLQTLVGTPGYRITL
CSC inhib = cancer stem cell viability inhibitors, primary screen, luminescence; cancer stem cell-like cells viability; actives 1.1% (n = 300,000); inhibition, % at 7.5 µM;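 active = mean at 75% or more and at least half the replicates too; inconclusive = mean and replicates disagree; tested in HMLE shEcad cells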;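 also: 0% = median of negative and 100% = median of positive control wells; the first replicate is given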
Env fusion inh = inhibitors of HIV-1 Env-driven cell-cell fusion, primary screen, HeLa-JRFL effector, CEM21 target cells, luciferase; inhibition, % at 12.3 µM; actives 1.1% (n = 360,000);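 active = mean replicate inhibition score of at least 50 and every replicate individually at or above 50; inconclusive = only one of the two criteria met; inactive = mean below 50 and not all replicates reaching 50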;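 also: 0% = plate neutral controls and 100% = maraviroc near 300 nM; one replicate is shown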
eIF4H inh retest = further read-out of eIF4H inh, marked with its call; inhibition, %; compound at 20 µM; confirmation average;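 mean of two retest wells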
PABP FP inh retest = second read-out of PABP FP inh, no call of its own (marks repeat the call); inhibition, %; compound at 20 µM; confirmation repeats;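 mean of two retest wells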
MT1-MMP act inh RFP = also measured in MT1-MMP act inh; calls as there; RFP signal change, %; measured here: RFP expression control read;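 0 = vehicle wells; hits needed this value within 50% of zero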
Numbers without * were called inactive; i = inactive; ? = inconclusive; nt = not tested or not shown.

SMILES	Yeast UUG start	eIF4H inh	PABP FP inh	MT1-MMP act inh	MT1-MMP act inh RFP	Rce1 inhib	CSC inhib	Env fusion inh	others
N/C(Cc1cccc2ccccc12)=N\OC(=O)Cc1cccs1	nt	27	10	-3	7	i	11	-2
O=C(NC1CCCCC1)C(c1ccc(F)cc1)N(Cc1ccco1)C(=O)CN1C(=O)c2ccccc2S1(=O)=O (stereo unspecified)	nt	-1	-6	2	-1	i	7	nt
CC(=O)C(Sc1nccc(-c2cccs2)n1)C(C)=O	5	3	1	0	5	i	-8	-7
CC1CN(C(=O)CCc2cc(C(C)(C)C)c(O)c(C(C)(C)C)c2)CC(C)O1 (stereo unspecified)	11	-3	0	-1	2	i	-1	36
O=C(Nc1ccnn1C1CCN(C2CCCCC2)CC1)c1ccccc1	-10	16	4	-5	0	i	nt	-6
COc1ccc(CNC(=O)C(c2ccc(C)o2)N(Cc2cccs2)C(=O)Cc2cccs2)cc1 (stereo unspecified)	-5	-3	13	-14	-9	i	-1	-2
CC(=O)c1ccc(C(=O)NC2CC(C)(C)Cc3c2cnn3-c2ccccc2)cc1 (stereo unspecified)	8	-9	4	0	1	i	2	4
Cc1ccc2[nH]c(=O)c(CN(Cc3cccnc3)C(=S)NCCCN(C)C)cc2c1	-26	1	2	-1	-1	i	0	-11
COC(=O)c1cn(C(=O)c2ccc(Cl)cc2)c2ccccc12	nt	-4	-5	1	1	i	-10	5
O=C(Oc1ccc(-c2nnco2)cc1)c1cc(S(=O)(=O)N2CCOCC2)ccc1F	4	nt	nt	7	-4	nt	nt	-9
CCOc1ccc(-c2nnc3n2N=C(c2ccc(OC)cc2)CS3)cc1	-13	6	1	9	5	i	4	-68
O=C(Nc1ccc(-c2cn3ccsc3n2)cc1)c1ccc(F)c(S(=O)(=O)N2CCOCC2)c1	-18	-16	-1	16	-8	i	14	48
Cc1onc(-c2c(F)cccc2Cl)c1C(=O)Nc1nc2c(s1)CCCC2	-13	-1	2	-8	-7	i	-1	nt
Cc1ccc(C)c(-n2c(-c3csc(C)c3)n[nH]c2=S)c1	-14	-5	-10	-5	1	i	-7	-36
COc1ccc2cc3cc(C(=O)NC(C)C)oc3nc2c1	-11	-7	-5	7	4	i	-1	-382
CC1(C(=O)NNC(=O)C2CCCCC2)CC1(Cl)Cl (stereo unspecified)	-4	-15	4	-1	3	i	-6	-8
Cc1ccc(CN2CCN(/N=C/c3cc(Br)ccc3O)CC2)cc1	-16	-10	0	7	0	i	-1	-31
CCOc1ccc(CNC(=O)C2CC(=O)N(C3CCCC3)C2)cc1OC (stereo unspecified)	-12	-12	-2	-1	0	i	-3	nt
CC1(C)CC2(CC(c3ccccc3F)c3ccc(O)c(O)c3O2)NC(=S)N1 (stereo unspecified)	nt	3	7	2	8	i	-12	24
Cc1ccc(C)c2[nH]c(=O)c(CCNC(=O)c3ccc(S(=O)(=O)N4CCCC4)cc3)cc12	-1	2	2	3	-1	i	-5	nt
CC1(C)CC(=O)C(C(O)c2ccccc2)C(C)(C)N1 (stereo unspecified)	-4	4	6	-8	1	i	-3	7
Cc1ccc(O)c(-c2cc(-c3ccc(F)cc3)no2)c1	-10	-8	-6	4	2	i	15	-248
COc1c(C)cc(S(=O)(=O)NCc2ccccn2)c(C)c1C	-14	-3	-7	0	3	i	-15	1
COc1cccc(OCc2cc(C(=O)NCc3ccccn3)no2)c1	7	-5	8	-1	1	i	-14	-34
CCCCC(=O)Nc1ccc(NC(=O)c2ccccc2[N+](=O)[O-])cc1OC	nt	-7	2	1	-2	i	1	18
Continuation.
SMILES	Yeast UUG start	eIF4H inh	PABP FP inh	MT1-MMP act inh	MT1-MMP act inh RFP	Rce1 inhib	CSC inhib	Env fusion inh	others
O=C(NCCc1ccccn1)c1cc(-c2cccc3ccccc23)nc2ccccc12	nt	-11	-12	-1	-1	i	-3	-3
Cc1ccc(S(=O)(=O)NC(CC(C)C)C(=O)N2CCCC2)cc1 (stereo unspecified)	-14	-1	-2	1	4	i	nt	nt
O=C1c2ccccc2C(=O)N1CCCCCc1nc(-c2ccccc2)no1	nt	-3	14	4	1	i	3	nt
CCC1CCCCN1C(=O)c1sc2nc(C)nc(N(CC)CC)c2c1C (stereo unspecified)	nt	-4	11	-2	-3	i	-12	10
Cc1ccc(S(=O)(=O)CCC(=O)OCC(=O)N2CCN(S(=O)(=O)c3ccccc3)CC2)cc1	nt	nt	nt	2	1	i	2	-8
COc1ccc(C(=O)NCCc2cc3c(OC)ccc(OC)c3[nH]c2=O)cc1OC	-5	5	28	-2	-4	i	15	-17
Cc1cc(C)n2nc3ccccc3c2n1	-14	106	-5	2	3	i	nt	nt	eIF4H inh retest=-6;PABP FP inh retest=5
Cc1cccc(C)c1-n1nnnc1C(c1cccs1)N1CCN(C/C=C/c2ccccc2)CC1 (stereo unspecified)	-9	nt	nt	2	-6	nt	nt	-28
C=C1N(CCCCCC(=O)O)C(=O)OC12CCCCC2	-19	-1	-2	-4	-4	i	8	4
COc1ccc(Cc2noc(CN(C)CC3(N4CCOCC4)CCCCC3)n2)cc1OC	1	1	-4	-1	1	i	1	1
CCCc1cc2c(cc1N(C)S(=O)(=O)c1ccccc1)OCO2	-33	nt	nt	-7	-10	nt	nt	13
CCCOc1ccc(-c2nnc(-c3ccco3)o2)cc1	-42	-3	0	4	3	i	0	-110
Cn1ccc2c(-c3ccc4c(c3)OCCO4)cc3c(c21)C1CCC3O1 (stereo unspecified)	-13	nt	nt	5	5	nt	nt	-1
COC(=O)C1NC(=O)N2C(C(=O)OC)C(C)(C)S[C@H]12 (stereo partly specified)	-10	nt	nt	1	5	i	2	27
O=C(CSc1nnc(C2CC2)n1Cc1ccccc1)c1ccc(S(=O)(=O)N2CCOCC2)cc1	-12	-11	-11	17	1	i	-21	-49
CC(=O)CSc1nc(-c2cccs2)c(C#N)c(=O)[nH]1	nt	28	11	-4	2	i	nt	-4
COc1ccc(C(=O)N/N=C2\SCC(=O)N2Cc2ccc3c(c2)OCO3)c(OC)c1	nt	9	35	-1	1	i	5	14
CN1CCN(c2nc(N3CCN(c4ccccc4)CC3)ncc2F)CC1	nt	-3	2	3	-3	i	-10	5
Cc1ccc(N=c2c([N+](=O)[O-])nn(-c3ccccc3)n2O)c(C)c1	-13	7	8	17	-4	i	nt	nt
O=C(C1CCCN1S(=O)(=O)c1cccc2nsnc12)N1CCN(c2ccccc2)CC1 (stereo unspecified)	-1	-16	2	1	0	i	9	nt
CCN1C/C(=C/c2ccc(OC)c(O)c2)C(=O)/C(=C/c2ccc(OC)c(O)c2)C1	nt	-7	-22	6	-6	i	102*	-116
O=C(NC1CCS(=O)(=O)C1)/C(=C/c1ccco1)NC(=O)c1ccccc1 (stereo unspecified)	nt	1	2	2	4	i	-10	-8
CCOC(=O)c1c(NC(=O)c2ccc(N3C(=O)[C@@H]4[C@H](C3=O)[C@H]3C=C[C@@H]4C3)cc2)sc2c1CCCC2	-22	-7	-14	-1	-3	i	41	7
O=C(NCc1ccccc1)c1ccc(Cn2cc(C(F)(F)F)ccc2=O)cc1	10	-2	-1	2	4	i	-5	0
CC(NC(=S)NCCc1ccccc1)C(c1cccs1)N1CCN(C)CC1 (stereo unspecified)	-15	0	2	-4	2	i	nt	-1

Quoted at random: 2 compounds from above, in no set order.
SMILES	Yeast UUG start	eIF4H inh	PABP FP inh	MT1-MMP act inh	MT1-MMP act inh RFP	Rce1 inhib	CSC inhib	Env fusion inh	others
Cc1cc(C)n2nc3ccccc3c2n1	-14	106	-5	2	3	i	nt	nt	eIF4H inh retest=-6;PABP FP inh retest=5
COc1ccc(Cc2noc(CN(C)CC3(N4CCOCC4)CCCCC3)n2)cc1OC	1	1	-4	-1	1	i	1	1

Later entries.
SMILES	Yeast UUG start	eIF4H inh	PABP FP inh	MT1-MMP act inh	MT1-MMP act inh RFP	Rce1 inhib	CSC inhib	Env fusion inh	others
Cc1ccc(NC(=S)N2CCCCCC2)c(C)c1	-30	8	-14	0	1	i	-17	-25
CCOC(=O)c1ccc2ncc(C(=O)OCC)c(NCc3ccco3)c2c1	-13	1	14	1	-9	i	52	nt
COC(=O)C1=C(COc2ccccc2)NC(=O)NC1c1ccc(Br)cc1 (stereo unspecified)	-14	-6	-3	7	-4	i	5	-5
Nc1ccc(N2CCCC2)c(S(=O)(=O)Nc2cccc(C(F)(F)F)c2)c1	nt	nt	nt	0	5	nt	-16	25
O=C(COc1ccccc1)N1CCN=C1SCc1ccc(F)cc1	-10	-9	-6	5	2	i	0	31
CCc1nc2ccc(C(=O)NCc3ccc(OC)cc3)cn2c1N(CC)CCN(C)C	-11	nt	nt	-6	7	nt	nt	-15
COc1cc2c3c(c1OC)C1(C=CC(=O)C=C1)CC3N(C(=O)CCC(=O)O)CC2 (stereo unspecified)	nt	3	12	-3	-2	i	-12	12
Cn1c(=O)c2c(nc(N3CCc4ccccc4C3)n2Cc2ccccc2F)n(C)c1=O	-11	0	-4	-31	-26	i	62	-94
Cc1ccc(S(=O)(=O)Nc2cccc(-n3cnnn3)c2)cc1	-11	-10	1	4	-5	i	-12	-4
CC(C)CCn1c(=O)c(C(=O)N/N=C/c2cccc(F)c2)c(O)c2ccccc21	nt	-5	-1	-1	-2	i	11	14
COc1cc(NC(=O)CN2c3ccccc3CC2C)cc(OC)c1OC (stereo unspecified)	-8	-2	-4	5	-4	i	-15	-8
CCOC(=O)C(=CNCC(=O)O)C(=O)OCC	-9	27	10	-1	-2	i	-4	nt
Cc1cccc2nc(CSc3ccccc3C(=O)O)cn12	nt	-7	-15	-1	3	i	-7	-1
COc1ccc(NC(=O)c2cccnc2)cc1OCC(C)C	-4	-10	3	-4	0	nt	2	1
CCc1ccc(C(=O)NC(=S)Nc2ccc3c(c2)OCCO3)cc1	-32	6	33	2	2	i	23	-44
O=C(NC1CCCC1)c1ccc2nc(-c3ccco3)c(-c3ccco3)nc2c1	10	102*	60*	-4	-6	nt	-7	nt	eIF4H inh retest=100*;PABP FP inh retest=83*
O=C(NCC(c1ccco1)N1CCCC1)c1cn(-c2ccccc2)nc1-c1ccc(F)cc1 (stereo unspecified)	-10	nt	nt	-1	3	nt	nt	-10
Cc1cc2ncc(C(=O)Nc3ccsc3C(=O)O)c(C)n2n1	-14	-7	0	0	-1	i	-10	-15
Cc1c(OC(C)C(=O)NCCN2CCOCC2)ccc2c3c(c(=O)oc12)CCCC3 (stereo unspecified)	0	0	-13	1	-1	i	2	13
CN(C)CCCNc1oc(-c2ccccc2)nc1C#N	-28	-1	4	1	4	?	-7	nt
CCCS(=O)(=O)N1CCc2cc(OC)c(OC)cc2C1	-4	-2	-1	1	0	i	nt	-29
CC(C)(C)c1cc(C(=O)N2CCc3ccccc32)ccn1	-3	-1	0	1	0	i	-4	nt
O=C(Cc1ccccc1)N/N=C/c1ccc(S(=O)(=O)O)o1	-16	7	-10	3	-1	i	nt	13
CCOc1ccc(C(C(=O)NCC2CCCO2)N(C(=O)c2snc(C(N)=O)c2N)c2ccc3c(c2)OCCO3)cc1 (stereo unspecified)	11	-1	6	-3	-1	i	-1	-6
COc1ccccc1C(=O)Nc1ccc(S(=O)(=O)Nc2cnc3ccccc3n2)cc1	-7	-3	6	3	2	i	11	-4

An unsorted share of the library; overall some 2.9% were active at least once.
